Assay outcomes: PubChem, ICCB-Longwood Screening Facility, Harvard Medical School
Mtb MenB inh – Mtb MenB enzyme inhibition | MenB enzyme assay, absorbance read-out; some hits fall short of the stated cut | AID 540299 | P9WNP5 | inhibition, %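 (about 12 µg/mL by stock and volumes)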 | 100,000 compounds, 0.43% hits;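 active = mean of two replicates above 30%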;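 note: 0% = no compound and 100% = wells with inactive enzyme; the first replicate is given; strong numbers were not always called active; inactives centre near -10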
Target sequence (P9WNP5 whole entry, looked up): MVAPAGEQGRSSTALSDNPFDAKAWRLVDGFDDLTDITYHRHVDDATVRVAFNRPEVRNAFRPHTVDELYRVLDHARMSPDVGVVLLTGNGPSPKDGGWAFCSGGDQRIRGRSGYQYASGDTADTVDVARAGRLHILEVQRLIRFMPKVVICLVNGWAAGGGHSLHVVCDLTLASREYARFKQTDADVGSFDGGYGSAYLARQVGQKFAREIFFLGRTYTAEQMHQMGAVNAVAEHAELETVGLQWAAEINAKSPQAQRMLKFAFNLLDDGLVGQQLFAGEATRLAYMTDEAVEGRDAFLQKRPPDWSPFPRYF
MbtI inh – MbtI salicylate synthase inhibition; purified MbtI enzyme, fluorescence intensity read-out; inhibition, %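 (about 17 µg/mL by stock and volumes)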; 100,000 compounds, 0.89% hits; AID 493033;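 active = above 50% in both replicates, above 80% if mildly self-fluorescent; inactive = the rest, strongly fluorescent compounds included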;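 note: 0% = mean of negative and 100% = mean of positive controls; one replicate is shown; some compounds called inactive have numbers as strong as hits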
Polio RdRp inh – inhibitors of poliovirus RNA polymerase binding and polymerization. P03300. 150,000 compounds, 0.66% hits. poliovirus polymerase elongation, fluorescence polarization; hits give low values. AID 588519. % elongation, % (compound at 16.7 µg/mL); in the data active = % elongation below about 90%; note: some results filed as inactive read as strong as hits
Target sequence (P03300 1749-2209 limits assumed): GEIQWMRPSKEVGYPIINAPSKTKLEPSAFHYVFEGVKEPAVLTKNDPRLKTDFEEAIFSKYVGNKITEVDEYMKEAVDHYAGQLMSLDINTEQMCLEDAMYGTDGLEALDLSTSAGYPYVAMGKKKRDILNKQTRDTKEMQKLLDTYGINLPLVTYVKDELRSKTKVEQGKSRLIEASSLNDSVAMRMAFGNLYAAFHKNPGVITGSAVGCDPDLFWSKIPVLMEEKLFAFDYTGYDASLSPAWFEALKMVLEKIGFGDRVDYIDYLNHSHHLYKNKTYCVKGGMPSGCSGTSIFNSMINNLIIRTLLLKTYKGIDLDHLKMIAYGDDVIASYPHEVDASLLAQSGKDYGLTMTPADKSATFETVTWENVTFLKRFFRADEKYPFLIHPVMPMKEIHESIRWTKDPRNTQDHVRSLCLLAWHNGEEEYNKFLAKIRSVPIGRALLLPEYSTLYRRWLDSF
Polio RdRp inh intensity – second read-out of Polio RdRp inh, no call of its own (marks repeat the call); % elongation; measured here: total intensity read-out; formula for this scale not given here;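 total fluorescence in place of polarization; lower means less elongation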
Numbers without * were called inactive; i = inactive; x = no result given. No enrichment for hits (roughly 1.8% active in at least one column).

no.	canonical_smiles	Mtb MenB inh	MbtI inh	Polio RdRp inh	Polio RdRp inh intensity
1	CCN(CC)c1ccc(/C=C2\CCc3ccccc3C2=O)cc1	-47.6	7.2	76.0	188.0
2	O=C(COC(=O)c1cncc(Br)c1)Nc1ccc(N2CCCCC2)cc1	-12.6	-5.6	107.0	108.0
3	CCOc1cc(C#N)c(NC(=O)c2ccc(OC)cc2)cc1OCC	-1.5	x	104.0	107.0
4	C(=N\n1c(-c2ccco2)csc1=Nc1cccnc1)/c1ccccn1	-83.4	30.3	103.0	97.0
5	COc1ccc(C2NN(CN3CCOCC3)C(=S)N2Cc2ccccc2)cc1 (stereo not drawn)	-41.8	x	107.0	108.0
6	CC1=C(C(=O)Nc2ccc(F)cc2)C(c2ccc(N3CCOCC3)cc2)C2=C(CCCC2=O)N1 (stereo not drawn)	-21.0	-150.0	101.0	105.0
7	Cc1cc2oc(=O)cc(CN(C)C3CCS(=O)(=O)C3)c2cc1C(C)C (stereo not drawn)	-19.3	5.1	103.0	103.0
8	N#CCC(=O)Nc1ccc(C(=O)OCC(=O)N2CCN(c3ccccc3)CC2)cc1	-22.7	-7.6	101.0	108.0
9	O=C(NCCCN1CCN(Cc2ccccc2)CC1)c1nnc(Cc2ccc(F)cc2)o1	-22.6	10.8	100.0	100.0
10	COCCn1c(SCC(=O)OC2CCCCC2)nnc1-c1ccco1	-105.3	8.4	104.0	108.0
11	NC(=O)NC1(C(F)(F)F)Oc2ccccc2O1	-15.1	-11.5	105.0	111.0
12	CCn1c(SCc2nc(-c3cccs3)no2)nnc1-c1ccncc1	-10.2	-12.1	102.0	104.0
13	S=C(c1c[nH]c2ccccc12)N1CCCCC1	-21.0	78.6*	105.0	105.0
14	NC(=S)N/N=C/c1c(Sc2ccc(Cl)cc2)nc2sccn12	-39.1	4.3	101.0	105.0
15	COc1ccc(C(=O)OCC#N)cc1S(=O)(=O)N1CCN(c2cccc(Cl)c2)CC1	-32.5	8.7	105.0	111.0

In the list so far, two have two or more sulfur atoms:
no.	canonical_smiles	Mtb MenB inh	MbtI inh	Polio RdRp inh	Polio RdRp inh intensity
12	CCn1c(SCc2nc(-c3cccs3)no2)nnc1-c1ccncc1	-10.2	-12.1	102.0	104.0
14	NC(=S)N/N=C/c1c(Sc2ccc(Cl)cc2)nc2sccn12	-39.1	4.3	101.0	105.0

The list goes on.
no.	canonical_smiles	Mtb MenB inh	MbtI inh	Polio RdRp inh	Polio RdRp inh intensity
16	COc1ccc(CCNc2ncnc3[nH]ncc23)cc1OC	-12.1	-5.7	101.0	98.0
17	O=C(COC(=O)Cc1cccc(C(F)(F)F)c1)Nc1ccc2[nH]c(=O)[nH]c2c1	6.6	-6.2	109.0	108.0
18	CC1=C(C#N)C(=O)N(C)C(=O)/C1=C/c1ccc(-c2ccc(Cl)cc2)o1	-3.9	19.0	100.0	97.0
19	O=C1C=C(Nc2ccccc2Br)CCC1	x	5.5	103.0	108.0
20	CCOC(=O)c1c(-c2cccs2)csc1NC(=O)C1CC=CCC1C(=O)O (stereo not drawn)	13.6	6.2	102.0	96.0
21	Cc1ccc(S(=O)(=O)NC(=O)N2CCC(C)CC2)cc1	-15.2	0.0	97.0	101.0
22	CNC(=O)CN1C(=O)/C(=C/c2ccccc2C)Sc2ccccc21	-21.4	-1.1	102.0	105.0
23	CCCCn1c(O)c(N=NC(=O)COc2ccccc2C)c2cc(OC)ccc21	-35.5	14.4	99.0	100.0
24	Cc1ccc(CNC(=S)NCCCn2nccc2C)cc1	-23.5	-8.0	101.0	101.0
25	Cc1cc(C(F)F)n2ncc(C(=O)NCc3ccccc3)c2n1	19.9	6.6	101.0	104.0
26	O=S(=O)(c1ccc(Cl)cc1)C(F)(F)C(F)(F)C(F)(F)F	-5.6	7.5	94.0	104.0
27	CC(C(=O)Nc1ccccc1)N1CCCCC1 (stereo not drawn)	-13.5	-14.0	99.0	98.0
28	O=C(COC(=O)C1CCN(C(=O)c2ccc(Cl)cc2)CC1)Nc1cccc2nsnc12	-41.7	4.6	x	x
29	COc1ccc(F)cc1C(O)CSCc1ccccc1 (stereo not drawn)	-6.5	-10.3	104.0	109.0
30	Cc1cccc(-c2noc(CCCC(=O)NC3CCCCC3)n2)c1	23.5	13.2	104.0	97.0

Entries by screen from above:
Polio RdRp inh, compounds 17–27, in order: 109.0, 100.0, 103.0, 102.0, 97.0, 102.0, 99.0, 101.0, 101.0, 94.0, 99.0

(listing goes on)
no.	canonical_smiles	Mtb MenB inh	MbtI inh	Polio RdRp inh	Polio RdRp inh intensity
31	COc1cccc(/C=C2\SC(=S)N(C(Cc3ccccc3)C(=O)O)C2=O)c1 (stereo not drawn)	-123.1	1.3	102.0	103.0
32	CCN(c1ccc2oc3ccccc3c2c1)S(=O)(=O)c1ccccc1C#N	-28.5	-1.4	102.0	94.0
33	Cc1cc(-n2c(C)cc(/C=C/C(=O)O)c2C)no1	3.6	17.4	103.0	110.0
34	COc1ccc(CCN(C)C(=S)NN)cc1OC	-51.9	x	113.0	119.0
35	COc1cccc(OC)c1OC(=O)c1cccc(S(=O)(=O)N(C)OC)c1	-8.4	5.8	102.0	108.0
36	CC1CCCN(C(c2ccc(F)cc2)c2c(O)[nH]c(=O)[nH]c2=O)C1 (stereo not drawn)	-58.0	10.2	101.0	103.0
37	COCCn1cnnc1SCC(=O)Nc1ccc(N2CCCCC2)cc1	-13.5	-3.0	108.0	104.0
38	CCN1CCC(N(Cc2ccc(F)cc2)C(=O)Nc2cc(C)ccc2OC)CC1	-6.5	-16.6	100.0	104.0
39	CC1(C)CC(=NNC(=O)CC#N)CC(C)(C)N1	4.1	-5.8	101.0	104.0
40	COC(=N)c1nccnc1SCc1ccc(F)cc1	8.6	-3.7	101.0	98.0
41	Cc1ccc2[nH]c(=O)c(CN(C)C(=O)C(C)C)cc2c1	-26.0	88.2	103.0	102.0
42	COC(=O)c1ccc(COC(=O)C2COc3ccccc3O2)o1 (stereo not drawn)	-4.9	6.4	98.0	106.0
43	COc1cc(C(=O)Nc2ccccc2C(=O)OCc2cc(=O)n3oc(C)cc3n2)cc(OC)c1OC	-16.3	-12.8	100.0	101.0
44	O=C1CCC2(C(=O)O)N1c1ccccc1C(=O)N2C1CC1 (stereo not drawn)	-27.4	-22.1	102.0	103.0
45	Cc1cc(C(=O)NCC2COc3ccccc3O2)no1 (stereo not drawn)	1.3	-10.0	105.0	105.0

The closing four entries of the part before are carried over, then new ones follow:
no.	canonical_smiles	Mtb MenB inh	MbtI inh	Polio RdRp inh	Polio RdRp inh intensity
42	COC(=O)c1ccc(COC(=O)C2COc3ccccc3O2)o1 (stereo not drawn)	-4.9	6.4	98.0	106.0
43	COc1cc(C(=O)Nc2ccccc2C(=O)OCc2cc(=O)n3oc(C)cc3n2)cc(OC)c1OC	-16.3	-12.8	100.0	101.0
44	O=C1CCC2(C(=O)O)N1c1ccccc1C(=O)N2C1CC1 (stereo not drawn)	-27.4	-22.1	102.0	103.0
45	Cc1cc(C(=O)NCC2COc3ccccc3O2)no1 (stereo not drawn)	1.3	-10.0	105.0	105.0
46	CN1C(=O)C(/C(N)=N\NC(=O)c2ccccc2)C2CC1(C)Oc1ccccc12 (stereo not drawn)	14.4	1.2	101.0	100.0
47	O=c1ccn(CN2CCCCC2)c(=O)n1CN1CCCCC1	-11.5	x	107.0	108.0
48	O=C(NC1CCCC1)c1n[nH]c(=O)c2ccccc12	-11.2	1.6	101.0	102.0
49	CCN(CC)CC(N)c1ccccc1 (stereo not drawn)	-11.4	0.4	102.0	108.0
50	CSC1=NC2(CCCCC2)NC2=C1CCCC2	-4.1	x	109.0	115.0
51	COc1ccc(NCc2cn[nH]c2-c2ccccc2)c(OC)c1	13.5	-6.7	99.0	102.0
52	NCCSc1n[nH]c(=O)[nH]c1=O	-16.5	7.5	100.0	106.0
53	Cc1cc2c(c(=O)o1)C(C(C)C)C(C#N)=C(N)O2 (stereo not drawn)	-91.1	-6.2	104.0	105.0
54	Cc1onc(-c2c(Cl)cccc2Cl)c1NC(=O)Nc1ccc(Cl)cc1	-10.7	-9.1	101.0	103.0
55	CC1CCCC(C)N1C(=O)COc1ccc(C(=O)N=Nc2c(O)[nH]c3ccccc23)cc1 (stereo not drawn)	0.2	6.7	102.0	111.0
56	Cc1cc(SCC2=NNC(=O)C2)c(Cl)cc1Cl	-3.8	13.2	95.0	104.0
57	CC(=O)Oc1cc2c(C(=O)N3CCOCC3)c(C)oc2c2ccccc12	-0.9	0.1	103.0	104.0
58	COCc1cc(=O)[nH]c(/N=C(\NC(=O)c2ccc(C)cc2)Nc2cccc(Cl)c2)n1	-3.6	8.9	103.0	98.0
59	Cc1ccc(P(=O)(CO)c2ccc(C)cc2)cc1	-20.8	-7.0	102.0	100.0
60	CCN(Cc1ccncc1)C(=O)C1CC1C (stereo not drawn)	13.5	6.2	101.0	102.0
61	CCOC(=O)C(C#N)C(=O)c1ccc(N)cc1 (stereo not drawn)	26.1	x	80.0*	83.0*
62	COc1ccccc1-c1nc(-c2ccc(C(F)(F)F)cc2)no1	0.4	-1.4	101.0	102.0
63	Cc1cc(C)c2c(=O)c3c(oc2c1)C(=O)N(CCO)C3c1ccccc1F (stereo not drawn)	-5.2	39.3	102.0	103.0
64	O=C(Nc1ccc2ccccc2n1)c1ccc(Cl)cc1	-10.0	0.7	106.0	111.0
65	CCCCOc1ccc(-c2nnn(C(C)(C)C(=O)O)n2)cc1	16.8	-1.5	100.0	99.0
66	COC(=O)c1cnc(NN2C(=O)CCC2=O)nc1C(F)(F)F	-16.0	-9.5	107.0	129.0
67	CCOc1nc2cccnc2n(C(CC)C(=O)Nc2ccccc2CC)c1=O (stereo not drawn)	-27.8	-0.4	103.0	102.0
68	COc1ccc(NC(=O)CSCc2ccccc2)cn1	13.6	-30.9	92.0	96.0
69	COc1cccc(NC(=O)c2ccccc2Cl)c1	6.2	4.8	101.0	105.0
70	Cc1ccc(Oc2nc(Cl)nc(Oc3ccc(C)cc3)n2)cc1	4.3	-4.2	99.0	95.0
71	Cc1ccc(Cn2c(CCCNC=O)nc3ccccc32)cc1	-16.6	-13.1	106.0	102.0
72	CC(=O)Nc1ccc(C(=O)Cn2c3[n+](c4c(F)c(F)ccc42)CCCCC3)cc1	x	0.5	104.0	103.0
73	CCC(CC)N1CCN(S(=O)(=O)CC)CC1	-1.0	-11.7	100.0	97.0
74	Cc1nn(C)cc1C(=O)c1ccccc1	-0.6	x	101.0	91.0
75	O=S(=O)(Cc1ccc(Cl)cc1Cl)c1nc2ncccc2[nH]1	-11.3	x	102.0	104.0
76	O=C(N/N=C/c1c(-c2ccccc2)nc2sccn12)c1ccc2ccccc2n1	1.5	-2.8	105.0	102.0
77	Cc1ccc(S(=O)(=O)c2c(F)c(F)c(S(=O)(=O)c3ccc(C)cc3)c(F)c2F)cc1	-9.2	-17.4	104.0	102.0
78	CC1CN(S(=O)(=O)c2ccc(NC(=O)C(NC(=O)Cc3ccccc3)C(C)C)cc2)CC(C)O1 (stereo not drawn)	-10.2	-5.9	102.0	108.0
79	OCCOCCNc1ncnc2sc(-c3ccccc3)cc12	-4.0	i	99.0	103.0
80	CCc1ccc(C2CC(=O)NC(N)=N2)cc1 (stereo not drawn)	3.1	-22.9	101.0	104.0
81	O=c1c(C=NC2CC2)c(O)n(C2CCCCC2)c(=O)n1C1CCCCC1	-15.8	-18.4	99.0	102.0
82	O=C(Nc1ccc(-c2nc3ncccc3o2)cc1)c1ccccc1	-12.0	19.1	105.0	103.0
83	CCCc1n[nH]c(=O)c2c1nnn2Cc1ccccc1	-10.0	-25.0	100.0	101.0
84	CC1CCCCN1C(=S)NCc1ccco1 (stereo not drawn)	-22.2	7.3	104.0	106.0
85	Cc1nc2ccccc2c(=O)n1NC(=O)c1ccccc1	15.8	-2.4	101.0	98.0
86	COc1cccc(N(C)C(=O)/C=C/c2ccc(F)cc2)n1	-15.0	6.2	104.0	105.0
87	CCN1C(=O)c2cccc3c(S(=O)(=O)N4CCCCCC4)ccc1c23	-28.0	-1.5	102.0	103.0
88	Cc1onc(-c2ccccc2)c1C(=O)Nc1sccc1C#N	-1.2	-18.2	112.0	120.0
89	N#CCCS(=O)(=O)c1nnnn1-c1ccccc1	-25.6	x	98.0	92.0
90	CCOC(=O)c1ccccc1NC(=O)COC	8.0	56.2	99.0	101.0
91	O=c1oc2ccccc2c(O)c1CN1CCCC1	-19.0	x	107.0	111.0
92	O=C1/C(=C/c2cccs2)COc2ccccc21	-81.7	1.3	102.0	105.0
93	NC(=O)c1ccc(NC(=O)COc2ccc(F)cc2Cl)cc1	-3.3	-2.0	110.0	116.0
94	Nc1nc(Cl)cc(N2CCOCC2)n1	-40.4	1.4	104.0	104.0
95	COCC(C)n1c(SCc2ccc(C(=O)OC)o2)nc2ccccc2c1=O (stereo not drawn)	-17.2	-3.0	104.0	105.0
96	COc1ccc(Br)cc1CSCCC#N	-3.2	-6.5	100.0	103.0
97	COC(=O)c1ccc(S(=O)(=O)N2CCCN(c3nccc(C(F)(F)F)n3)CC2)n1C	-17.2	-1.4	104.0	103.0
98	c1coc(-c2nc3sc4c(NCCN5CCOCC5)ncnc4c3c3c2CCCC3)c1	-25.2	9.1	102.0	105.0
99	Cn1c2ccccc2n2c(CCC(=O)O)c(-c3ccccc3)nc12	8.6	x	102.0	107.0
100	CCOC(=O)C1CCCN(C(=O)CSc2ccc(NC(C)=O)cc2)C1 (stereo not drawn)	0.0	66.6*	100.0	98.0
